YopH PTP inh: YopH tyrosine phosphatase inhibitors, primary screen, biochemical, fluorescence Ex485/Em525 | YopH tyrosine phosphatase [Yersinia enterocolitica] | inhibition, %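 (about 10 µM by stock and volumes)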 | 0.16% of 140,000 active | AID 898, 2007;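 active = inhibition of 50% or more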;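 note: controls were vehicle for no effect and minimum signal wells for full effect; inactives centre near -20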
RecA splice inh: Mtb RecA intein splicing inhibitors, primary screen, biochemical, fluorescence, HTS; cell-free RecA intein splicing; inhibition, %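 (about 9 µM by stock and volumes)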; 0.75% of 290,000 active; AID 2221, 2009; in the data active = inhibition above about 30%; inconclusive = no clear call, values can overlap the other calls;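 note: 0% = vehicle wells and 100% = reference inhibitor control wells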
Target sequence (P9WHJ3 whole entry, looked up, canonical isoform): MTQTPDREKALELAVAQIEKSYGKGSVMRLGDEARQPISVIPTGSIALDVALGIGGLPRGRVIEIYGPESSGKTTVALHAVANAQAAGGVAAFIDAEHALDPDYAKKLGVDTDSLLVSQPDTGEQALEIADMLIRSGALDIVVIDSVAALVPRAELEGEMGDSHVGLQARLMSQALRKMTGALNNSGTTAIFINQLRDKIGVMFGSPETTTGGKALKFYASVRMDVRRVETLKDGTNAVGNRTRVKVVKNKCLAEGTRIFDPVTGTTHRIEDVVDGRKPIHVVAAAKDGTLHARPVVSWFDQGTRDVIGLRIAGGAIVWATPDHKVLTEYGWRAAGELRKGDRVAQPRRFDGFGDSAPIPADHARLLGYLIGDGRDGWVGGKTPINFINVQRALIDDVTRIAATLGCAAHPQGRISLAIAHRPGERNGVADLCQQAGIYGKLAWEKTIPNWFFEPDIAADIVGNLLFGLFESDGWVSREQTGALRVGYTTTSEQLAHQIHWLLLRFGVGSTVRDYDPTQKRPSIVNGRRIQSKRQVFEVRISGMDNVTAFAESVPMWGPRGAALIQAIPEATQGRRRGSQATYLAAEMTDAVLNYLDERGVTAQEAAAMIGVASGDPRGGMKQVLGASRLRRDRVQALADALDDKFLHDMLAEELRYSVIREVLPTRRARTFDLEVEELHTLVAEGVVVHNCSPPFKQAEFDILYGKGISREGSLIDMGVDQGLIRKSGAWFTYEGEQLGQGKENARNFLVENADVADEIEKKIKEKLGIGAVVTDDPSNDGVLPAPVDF
Arbovirus inh: antivirals against arbovirus infection, primary screen, cell-based, full library, 10K replicate subset; inhibition, % at 10 µM; 0.37% of 200,000 active; arbovirus infection cell-based antiviral screen; AID 1251, 2008;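 active = inhibition from about 30%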;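 note: bluetongue infection of BSR cells; cell survival read as ATP light after 72 h; 0% = infected wells without compound and 100% = uninfected wells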
Mtb growth: M. tuberculosis H37Rv growth inhibitors, H37Rv strain (AID 1626) | one-dose inhibition, % at 10 µM; IC50 in µM for titrated hits | M. tuberculosis H37Rv growth inhibition; higher % means a stronger effect | 0.95% of 220,000 active;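 active = confirmed in a dose series; inconclusive = inhibition above 80% but not taken into the dose series; inactive = below 80% or under 30% at every dose of the series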;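 note: bacteria incubated seven days before Alamar blue readout; 0% = bacteria only wells and 100% = bacteria with antibiotic wells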
Mtb betalactam: beta-lactam sensitization of Mtb H37Rv, H37Rv; M. tuberculosis H37Rv growth with meropenem, percent inhibition; hits of this screen are not shown here; inhibition, % at 25 µM; 0.27% of 330,000 active; AID 434955, 2010;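 active = about 74% or more and at least 40 points above the plate without the antibiotic, then above 30% in a dose series; inconclusive = first-round hits that could not be retested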;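 note: growth measured after seven days incubation then overnight dye step; 0% = bacteria only wells and 100% = bacteria with antibiotic; twin plates without the antibiotic show which effects depend on it; some results filed as inactive read as strong as hits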
Arbovirus inh repeat: second read-out of Arbovirus inh, no call of its own (marks repeat the call); inhibition, %; measured here: 10K subset replicate screen; many hits read low in the repeat;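 first of two repeat runs on a subset; 0% = infected and 100% = uninfected wells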
* marks the source's active call; other numbers are inactive results. These rows are one share of the data (hit frequency here may not be typical).

For O=C(Nc1cccc(Cl)c1)OCc1cn(-c2ccccc2)nn1 the results were RecA splice inh 2.5, Arbovirus inh 6.7, Mtb growth -9.2% and Mtb betalactam 0.4.
`Cc1cc2nc(C)n(CCCNC(=O)Nc3ccccc3)c2cc1C` gave YopH PTP inh -2.5, RecA splice inh 3.1, Arbovirus inh 6.4, Mtb growth -2.5% and Mtb betalactam 4.6.
`O=C(OCCCOC(=O)c1cc[n+]([O-])cc1)c1cc[n+]([O-])cc1` gave RecA splice inh 1.1 and Mtb betalactam -5.4.
Cc1c(N2C(=O)C(=O)/C(=C(/O)c3ccc(Br)cc3)C2c2cccnc2)c(=O)n(-c2ccccc2)n1C (stereo not given) was read as Arbovirus inh 2.5, Mtb growth -12.5% and Mtb betalactam -3.5.
N/C(=N\OC(=O)Cc1ccc(-c2ccccc2)cc1)c1cccc([N+](=O)[O-])c1 was read as YopH PTP inh 7.0, RecA splice inh 1.1, Arbovirus inh 9.1, Mtb growth -2.3% and Mtb betalactam 14.8.
`COc1ccc(N2CC(C(=O)NCCc3ccc(Cl)cc3)CC2=O)c(OC)c1` (stereo not given) gave RecA splice inh 1.6 and Mtb betalactam -10.9.
`CCOc1ccc(C(C)=O)cc1CN1C(=O)C(=O)N(CC)C1=O` gave Arbovirus inh 2.8, Mtb growth 2.2% and Mtb betalactam 1.7.
For O=C(CSc1nc(-c2ccccc2)cs1)NCCN1C(=O)CSC1=O the results were RecA splice inh -0.1, Arbovirus inh -0.7, Mtb growth -2.7% and Mtb betalactam -1.4.
`COC(=O)C(C)Sc1nnc(Cc2cc(=O)[nH]c(=O)[nH]2)n1-c1cc(C)ccc1C` (stereo not given) gave YopH PTP inh -36.7, Arbovirus inh 0.6, Mtb growth 6.1%, Mtb betalactam -3.1 and Arbovirus inh repeat -2.0.
Screening COc1ccc(C(=O)Nc2nc3ccccc3[nH]2)cc1OC returned YopH PTP inh 4.3, RecA splice inh -1.2, Arbovirus inh 6.5, Mtb growth 8.2% and Mtb betalactam -18.9.
Screening O=C(NC(=S)Nn1cnnc1)c1ccccc1Br returned RecA splice inh -0.9 and Mtb betalactam -7.2.
Cc1cc(C)c(C(N)=O)c(SCC(=O)c2cc(C)c(C)cc2C)n1 was read as YopH PTP inh -8.3, RecA splice inh 0.9, Arbovirus inh -16.8, Mtb growth 1.4% and Mtb betalactam -6.7.
Screening COc1ccc(CN2CCN(C(=O)c3cccs3)CC2)cc1 returned YopH PTP inh -2.9, RecA splice inh 5.9, Arbovirus inh 1.6, Mtb growth -12.8% and Mtb betalactam -3.4.
For COc1cccc(OC)c1C(=O)Nc1ccc(Br)c(C(=O)c2ccccc2)c1 the results were RecA splice inh 11.2 and Mtb betalactam 8.5.
Screening COc1ccc(-n2ncc(C(C)NS(=O)(=O)c3cc(F)ccc3C)c2C)cc1 (stereo not given) returned RecA splice inh 3.3 and Mtb betalactam -3.6.
Cc1cc(NC2CCCCC2)nc(N2CCOCC2)n1 was read as YopH PTP inh -26.7, RecA splice inh 1.5, Arbovirus inh -2.1, Mtb growth -10.3% and Mtb betalactam -0.8.
COc1cc(OC)c(NS(=O)(=O)c2cc(C(=O)OC(C)C(=O)NC3CC3)c(Cl)cc2Cl)cc1Cl (stereo not given) was read as YopH PTP inh -16.0, RecA splice inh -1.3, Arbovirus inh 9.8, Mtb growth -0.6% and Mtb betalactam -2.6.
For COc1ccc(-n2cnc3sccc3c2=O)cc1 the results were RecA splice inh -2.5 and Mtb betalactam -2.1.
`Cn1c(SCC(=O)Nc2cccc(S(=O)(=O)N3CCOCC3)c2)nnc1-c1ccncc1` gave RecA splice inh 3.4, Arbovirus inh 0.8, Mtb growth 0.4% and Mtb betalactam -6.7.
`CCC(C)NC(=O)Cn1c(COc2ccc(Cl)cc2Cl)nc2ccccc21` (stereo not given) gave YopH PTP inh -17.3, RecA splice inh -3.9, Arbovirus inh -11.7, Mtb growth -8.2% and Mtb betalactam 6.0.
Screening Cc1nc(C)c(C(=O)OCC(=O)N2CCN(c3ccccc3)CC2)s1 returned YopH PTP inh -2.6, RecA splice inh 5.9, Arbovirus inh 3.6, Mtb growth -5.6% and Mtb betalactam -1.4.
`Cc1cc(C)c2cc(CN(Cc3ccco3)C(=O)NCc3ccccc3)c(=O)[nH]c2c1` gave YopH PTP inh 7.7, RecA splice inh 0.2, Arbovirus inh -3.7, Mtb growth 4.2% and Mtb betalactam -8.4.
O=C(Nc1ccccn1)c1ccc(C(=O)Nc2ccccn2)cc1 was read as RecA splice inh -0.1 and Mtb betalactam -3.5.
Screening O=C(O)COc1ccc(NC(=O)c2ccc3c(c2)C(=O)N(Cc2ccccc2)C3=O)cc1 returned RecA splice inh 1.0 and Mtb betalactam -6.3.
Screening CCC1=NN2C(=N)/C(=C/c3cc(C)n(Cc4ccccc4)c3C)C(=O)N=C2S1 returned RecA splice inh -4.8, Mtb growth -16.7% and Mtb betalactam -0.9.
Screening CCOC(=O)N1CCN(C(=O)c2ccccc2NC(=O)COc2ccccc2)CC1 returned RecA splice inh -0.9 and Mtb betalactam -24.9.
Screening S=c1nc[nH]c2c1ncn2C1CCCO1 (stereo not given) returned RecA splice inh -3.9, Mtb growth inconclusive and Mtb betalactam 97.3.
For Cc1ccc([N+](=O)[O-])cc1S(=O)(=O)Nc1ccc(C(=O)N(C)C)cc1 the results were RecA splice inh -5.5, Arbovirus inh -3.0 and Mtb betalactam 1.1.
For CCC(C(=O)Nc1ccccc1-c1ccccc1)c1ccccc1 (stereo not given) the results were YopH PTP inh -40.4, RecA splice inh 7.3, Arbovirus inh -6.0, Mtb growth -3.6% and Mtb betalactam 1.1.
COc1cccc(NC(=O)C2C3C=CC(O3)C2C(=O)O)c1 (stereo not given) was read as RecA splice inh 1.4 and Mtb betalactam 3.2.

Grouped by structure, the entries above with an NH in an aromatic ring.
`COC(=O)C(C)Sc1nnc(Cc2cc(=O)[nH]c(=O)[nH]2)n1-c1cc(C)ccc1C` (stereo not given) gave YopH PTP inh -36.7, Arbovirus inh 0.6, Mtb growth 6.1%, Mtb betalactam -3.1 and Arbovirus inh repeat -2.0.
Screening COc1ccc(C(=O)Nc2nc3ccccc3[nH]2)cc1OC returned YopH PTP inh 4.3, RecA splice inh -1.2, Arbovirus inh 6.5, Mtb growth 8.2% and Mtb betalactam -18.9.
`Cc1cc(C)c2cc(CN(Cc3ccco3)C(=O)NCc3ccccc3)c(=O)[nH]c2c1` gave YopH PTP inh 7.7, RecA splice inh 0.2, Arbovirus inh -3.7, Mtb growth 4.2% and Mtb betalactam -8.4.
Screening S=c1nc[nH]c2c1ncn2C1CCCO1 (stereo not given) returned RecA splice inh -3.9, Mtb growth inconclusive and Mtb betalactam 97.3.

Next part.
For O=C(Nc1ccc2[nH]ccc2c1)c1cccs1 the results were RecA splice inh 3.8, Mtb growth 0.6% and Mtb betalactam -3.5.
`Cc1ccc(C)c(Cn2nnc3c(=O)[nH]c(C4CCCN(C(=O)c5cccs5)C4)nc32)c1` (stereo not given) gave RecA splice inh 3.9 and Mtb betalactam 3.9.
Cc1nc(C(=O)NNC(=O)c2ccc(C(F)(F)F)cc2)cs1 was read as RecA splice inh -0.5, Mtb growth -4.8% and Mtb betalactam 78.1.
Screening COC(=O)c1cccc(NC(=O)c2ccc3c(c2)C(=O)N(CC2CCCO2)C3=O)c1 (stereo not given) returned YopH PTP inh -8.7, Arbovirus inh 6.2, Mtb growth -11.4% and Mtb betalactam -4.6.
For COc1ccccc1N1CCN(S(=O)(=O)c2cc(C(F)(F)F)cc(C(F)(F)F)c2)CC1 the results were RecA splice inh 4.2, Mtb growth -4.6% and Mtb betalactam 3.0.
CC(=C/c1ccccc1)/C=N/N1CCN(Cc2ccc(C)cc2)CC1 was read as RecA splice inh -4.8, Mtb growth -3.7% and Mtb betalactam -4.6.
For C=C(C)C(=O)N1CC2(CC(c3cccc(NC(=O)c4ccccc4)c3)=NO2)C[C@@H]1C(N)=O (stereo not given in full) the results were YopH PTP inh -25.0, RecA splice inh -1.3, Arbovirus inh 4.0, Mtb growth -8.1% and Mtb betalactam -1.0.
`CCN(Cc1ccc2c(c1)OCO2)C(=O)/C=C/c1cccc(Br)c1` gave RecA splice inh 15.6 and Mtb betalactam 2.3.
Screening COc1cccc(/C=N/NC(=O)c2cc3c(OC)c(OC)ccc3[nH]2)c1OC returned YopH PTP inh -25.6, RecA splice inh -1.2, Arbovirus inh -5.8 and Mtb growth 6.5%.
`CC(=O)c1nn(-c2cccc(Br)c2)cc1C(=O)c1ccccc1` gave YopH PTP inh -24.4, RecA splice inh -0.2, Arbovirus inh -3.3, Mtb growth -5.8% and Mtb betalactam 3.5.
For COC(=O)Nc1ccc(S(=O)(=O)N(CCO)CC(F)(F)C(F)F)cc1 the results were YopH PTP inh -1.1, Arbovirus inh -6.7, Mtb growth -2.3% and Mtb betalactam 0.9.
`Cc1cc(O)c(NC(=O)c2ccc(Br)o2)cc1C` gave YopH PTP inh -10.1, RecA splice inh 0.2, Arbovirus inh 25.2, Mtb growth -11.8% and Mtb betalactam -15.3.
Screening C[C@H](NC(=O)c1nc[nH]c1C(=O)NCC(=O)OC(C)(C)C)C(=O)OCc1ccccc1 returned RecA splice inh 0.2 and Mtb betalactam 23.7.
`CCOc1ccc(Oc2c(C)oc3cc(O)ccc3c2=O)cc1` gave RecA splice inh -3.5, Arbovirus inh 5.7, Mtb growth -22.4% and Mtb betalactam 3.1.
Screening COC(=O)C1=C(C)N(C)C(=O)/C1=C\c1cccs1 returned YopH PTP inh -14.7, RecA splice inh -2.0, Arbovirus inh -3.2, Mtb growth -2.5% and Mtb betalactam 1.4.
For CC(C)(SC(=S)N1CCOCC1)C(=O)O the results were YopH PTP inh 14.9, RecA splice inh -2.4, Arbovirus inh 7.8, Mtb growth -1.3% and Mtb betalactam -0.9.
O=C(COC(=O)CSc1cc(Cl)ccc1Cl)NCc1ccc2c(c1)OCO2 was read as YopH PTP inh -24.1, RecA splice inh 7.4, Arbovirus inh -12.6, Mtb growth -0.3% and Mtb betalactam -2.3.
For CC(=O)c1cc(-c2ccccc2)n(CC(=O)NC2CCCC2)c1C the results were YopH PTP inh 17.9, RecA splice inh 0.9, Arbovirus inh -5.1, Mtb growth 2.8% and Mtb betalactam -11.0.
`COc1cccc(N=C2SC(C(=O)Nc3ccc(F)cc3)CC(=O)N2C)c1` (stereo not given) gave YopH PTP inh -40.2, RecA splice inh 0.9, Arbovirus inh 4.0, Mtb growth 1.7% and Mtb betalactam 2.5.
Screening CN1CCN(CCP(=O)(c2ccccc2)c2ccccc2)CC1 returned YopH PTP inh -136.6, RecA splice inh 1.3, Arbovirus inh 4.0, Mtb growth -0.7% and Mtb betalactam -5.4.
`COCCOC(=O)c1c(C)oc2ccc(OC(=O)c3cccs3)cc12` gave YopH PTP inh -59.7, RecA splice inh -1.0, Arbovirus inh 6.1, Mtb growth inconclusive, Mtb betalactam 99.2 and Arbovirus inh repeat 4.5.
Screening Cc1oc(-c2cccc(Cl)c2)nc1CS(=O)(=O)CC(=O)NC1CC1 returned RecA splice inh -1.8 and Mtb betalactam -2.8.
O=C(NNc1ccc([N+](=O)[O-])cc1)C1CC2CCCC(C1)C2=O (stereo not given) was read as YopH PTP inh 2.2, RecA splice inh 3.6, Arbovirus inh -0.4, Mtb growth inconclusive and Mtb betalactam 98.5.
For COc1ccc(CN2CCN(Cc3ccc(CO)o3)CC2CCO)cc1C (stereo not given) the results were RecA splice inh -0.8 and Mtb betalactam 2.6.
`Cc1cccc(OCC(=O)NNC(=O)CSc2ncc(C#N)c(N)n2)c1` gave YopH PTP inh -4.1, RecA splice inh -0.9, Arbovirus inh 10.0, Mtb growth -8.7% and Mtb betalactam -9.2.
For CSc1nsc2nc(=O)c(/C=C3\C(C)=Nc4ccccc43)c(N)n12 the results were RecA splice inh 3.9, Arbovirus inh 31.8* and Mtb growth -1.8%.
For COC(=O)CSc1cc(C)nc2ccc(OC)cc12 the results were YopH PTP inh -28.1, Arbovirus inh 0.2, Mtb growth 10.7% and Mtb betalactam 11.0.
`CSc1ccc(/C=N/n2c(C)cc(C)cc2=O)cc1` gave YopH PTP inh -43.2, RecA splice inh -2.1, Arbovirus inh -0.2, Mtb growth -6.0% and Mtb betalactam 2.5.
`C=CCN1C(=O)CS/C1=N/c1nccs1` gave YopH PTP inh 11.1, RecA splice inh -1.4, Arbovirus inh 2.0, Mtb growth -0.7% and Mtb betalactam -8.6.
CCOc1ccc(-n2c(-c3ccc(Br)cc3)c[n+]3c2CCCCC3)cc1 was read as RecA splice inh 3.3, Arbovirus inh -7.6, Mtb growth 8.4% and Mtb betalactam 5.4.
For C=CCOC(=O)C(=O)/C=C/c1c(C)n(C)n(-c2ccccc2)c1=O the results were RecA splice inh -4.4, Arbovirus inh 3.5, Mtb growth 2.5% and Mtb betalactam -1.5.
